From PubChem BioAssay
BJeLR viability: kills HRASV12-expressing BJeLR cells; BJeLR (HRASV12) viability, CellTiter-Glo ATP luminescence, 48 h; reference of the scale not given here; inhibition, % (test concentration not listed); 0.17% of 300,000 active;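 active means replicate mean above 50%; inconclusive means above 50% but judged a plate artefact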;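 further: 50 nL library stock added to about 25 µL; numbers are from one replicate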
Mtb hypoxia inh: inhibitors of hypoxia-regulated fluorescent reporter in Mycobacterium tuberculosis; M. tuberculosis hypoxia-regulated fluorescent reporter, fluorescence; fluorescence inhibition, % (concentration not given with the values); 0.1% of 300,000 active; AID 1159583;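 active means 35 to 45% if threefold the growth effect, above 45% if 1.5-fold the growth effect; inactive means the rest, general growth blockers included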;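 further: wells of about 50 µL received 100 nL stock; 0% = vehicle wells and 100% = reference inhibitor wells; whole bacteria with a GFP reporter of the hypoxia response; strong numbers were not always called active; many hits fall short of the cut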
RN4220 kill: kills Staphylococcus aureus RN4220. AID 1259311. S. aureus RN4220 growth, OD600, 16 h. inhibition, % (no concentration beside the values). 0.33% of 330,000 active;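 active means z-score of -3 or lower and OD600 up to 0.18 on both plates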;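 further: plate controls were untreated cells for no effect and reference antibiotic for full effect; stock transfer was 100 nL into about 80 µL; one replicate is shown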
PrP 5UTR inh: suppresses PrP 5' UTR mRNA reporter expression | cell-based PrP 5' UTR mRNA reporter, plate reader | inhibition, % (no concentration beside the values) | 0.35% of 340,000 active | AID 488862;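 active means every replicate at 50% or more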;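 further: 0 = median of the neutral control wells; tested in H4 reporter cells; numbers are from one replicate; inactives centre near -14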
Bead autofluor: flagged as autofluorescent in microsphere protease counterscreen; compound autofluorescence counterscreen, microsphere flow cytometry; hits give high values; fluorescence intensity (no concentration beside the values); 3.1% of 360,000 active; AID 624483;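 active means at least 3 SD above the mean of all compounds, about 16000 in these data; inconclusive means too few beads counted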;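 further: 100 nL of 1 mM stock went into each well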
Sa ugtP lethal: compounds lethal to S. aureus RN4220 ugtP deletion mutant | OD600 growth, 16 h; some inactives read as strong as hits | growth inhibition, % (concentration not given with the values) | 0.54% of 330,000 active;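 active means z-score under -3 and OD600 up to 0.15 on both plates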;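 further: plate controls were untreated wells for no effect and antibiotic for full effect; wells of about 80 µL received 100 nL stock; the first replicate is given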
Mtb hypoxia inh growth: also measured in Mtb hypoxia inh; calls as there; growth inhibition, %; measured here: M. tuberculosis growth (absorbance);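 0% = vehicle and 100% = reference antibiotic; read after six days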
An asterisk follows results filed as active; ? = inconclusive; . = not tested or not shown; & = joins results of further samples.

The line under a structure holds: BJeLR viability | Mtb hypoxia inh | Mtb hypoxia inh growth | RN4220 kill | PrP 5UTR inh | Bead autofluor | Sa ugtP lethal
1: COc1ccc(-c2nc(CS(=O)CC(=O)NC(C)CCc3ccccc3)c(C)o2)cc1OC (stereo not given)
  -2 | 10 | 4 | 3.5 | -4 | 5466 | 5
2: Cc1cc(=O)oc2cc(OS(C)(=O)=O)ccc12
  -3 | -9 | -2 | -0.2 | -9 | 1985 | 7
3: Cc1ccccc1C(=O)Nc1ccccc1C(=O)N1CCC(C)CC1
  7 | -1 | -5 | 2.1 | -12 | 6083 | 2
4: COc1ccc(-n2c(CSc3nc(C)cc(C)n3)nnc2SCC(=O)Nc2nccs2)cc1
  -16 | -2 | 5 | 4.0 | -15 | 4257 | -5
5: CN(c1ccccc1C(=O)Nc1cccc([N+](=O)[O-])c1)S(=O)(=O)c1ccccc1
  1 | -3 | 7 | -0.7 | -22 | 4109 | 0
6: Cc1cc(C)c(C(=O)/C=C/c2cccc3ccccc23)c(=O)[nH]1
  -1 | 9 | 12 | 3.6 | -2 | 9206 | -2
7: CCN1CCCC1CNC(=O)C(=O)Nc1ccc(OC)cc1 (stereo not given)
  -1 | 4 | 15 | 3.9 | -25 | 11758 | 1
8: CCC1Oc2ccccc2N(CC(=O)NCCN2C(C)CCCC2C)C1=O (stereo not given)
  -2 | 15 | 11 | 1.9 | -5 | 9359 | 5
9: COCCNC(=S)N1CCc2cc(OC)c(OC)cc2C1COc1cc(C)cc(C)c1 (stereo not given)
  -9 | 5 | 6 | 1.1 | -14 | 2387 | 3
10: CCN(CC)CCSc1nnc2c3cc(C)ccc3n(Cc3ccccc3)c2n1
  1 | 9 | 0 | -0.7 | . | 5710 | 15
11: COc1cc(/C=N/NS(=O)(=O)c2ccc(Br)cc2)ccc1O
  1 | . | . | . | -8 | 6137 | .
12: Cn1c(SCC(=O)NCCNC(=O)CSc2nnc(C(F)(F)F)n2C)nnc1C(F)(F)F
  -4 | -1 | 2 | 7.7 | -7 | 2956 | 2
13: CCn1c(O)c(C=Nc2cc(Cl)ccc2Cl)c(=O)n(CC)c1=O
  -2 | 3 | -2 | -3.6 | -14 | 2354 | -10
14: Cc1cc(Cl)ccc1OCC(=O)NCC(=O)N/N=C/c1ccco1
  -2 | . | . | . | -16 | 2193 | .
15: COc1ccc(CCc2nc(C)ccc2O)cc1
  7&12 | 9&9 | 6&4 | 7.0&9.7 | -30&-8 | 2163&3134 | -2&-2
16: Cc1occc1C(=O)NN=C/C=C/c1ccccc1
  . | . | . | 1.0 | . | . | 2
17: COc1ccc(C)cc1N(CC(=O)NC1CCCC1)C(=O)Cn1nnc(-c2ccc(C)o2)n1
  -13 | 8 | 3 | 1.1 | -27 | 5133 | 3
18: Oc1cccc(/C=N/Nc2ncnc3c2ncn3Cc2ccccc2)c1
  -7 | . | . | . | -12 | 2078 | .
19: Cc1ccc(-c2cc(C(=O)O)n[nH]2)o1
  -1 | -3 | -3 | -1.5 | -21 | 8245 | -3
20: Cc1ccc(-n2nnc3c(=O)n(CC(=O)c4ccccc4)cnc32)cc1
  -8 | 4 | 2 | -10 | -25 | 6204 | -2
21: O=C(Nc1ccccn1)c1ccc(Br)c(S(=O)(=O)N2CCCC2)c1
  7 | 5 | 3 | 1.0 | -31 | 5997 | 10
22: Cc1cccc(C(=O)c2cccc(C)c2)c1
  4 | 2 | -2 | 11 | 8 | 11017 | 5
23: CCOC(=O)c1c(NC(=O)C(C)Sc2nnc(C)c(=O)[nH]2)sc2c1CCCC2 (stereo not given)
  3 | 18 | 2 | 2.1 | -28 | 3942 | 12
24: CCC(C)c1ccc(NC(=O)CSc2nncn2N)cc1 (stereo not given)
  3 | 13 | 6 | -5.2 | -19 | 2908 | -4
25: CCCOc1ccccc1C(=O)N1CCNC(=O)C1CC(=O)OC(C)C (stereo not given)
  -5 | 9 | 7 | 4.5 | -19 | 3498 | 18
26: CCC(=O)N1CCN(CCN=CC2=C(O)CC(c3cccs3)CC2=O)CC1 (stereo not given)
  7 | 5 | 5 | 7.1 | -26 | 7001 | 9
27: CC(C)Sc1cc(N2CCOCC2)nc(-c2ccccc2)n1
  0 | 3 | -2 | -8.2 | -17 | 2383 | 98*
28: O=C1CC(NCc2ccncc2)C(=O)N1c1ccc(Cl)cc1 (stereo not given)
  -7 | -4 | 4 | -4.2 | -37 | 6246 | -6
29: Cc1ccccc1OCc1nnc(SC(C)C(=O)O)n1Cc1ccccc1 (stereo not given)
  7 | 9 | 3 | 7.1 | 3 | 3830 | -2
30: Cc1cc(C)cc(CSCC(=O)NN=C2CCCCCC2)c1
  15 | 1 | 3 | 2.3 | -16 | 2103 | 2

Sorted by count of non-hydrogen atoms (smallest number first): part of the list above.
The line under a structure holds: BJeLR viability | Mtb hypoxia inh | Mtb hypoxia inh growth | RN4220 kill | PrP 5UTR inh | Bead autofluor | Sa ugtP lethal
16: Cc1occc1C(=O)NN=C/C=C/c1ccccc1
  . | . | . | 1.0 | . | . | 2
30: Cc1cc(C)cc(CSCC(=O)NN=C2CCCCCC2)c1
  15 | 1 | 3 | 2.3 | -16 | 2103 | 2
25: CCCOc1ccccc1C(=O)N1CCNC(=O)C1CC(=O)OC(C)C (stereo not given)
  -5 | 9 | 7 | 4.5 | -19 | 3498 | 18

(continued)
The line under a structure holds: BJeLR viability | Mtb hypoxia inh | Mtb hypoxia inh growth | RN4220 kill | PrP 5UTR inh | Bead autofluor | Sa ugtP lethal
31: COc1ccc(C(=O)O/N=C(\N)Cc2ccc(Cl)c(Cl)c2)cc1OC
  18 | 12 | 4 | 5.0 | -14 | 2513 | -3
32: Cc1ccccc1C(OCC(O)CN1CCCCC1CCO)c1ccccc1 (stereo not given)
  4 | . | . | 0.1 | -3 | 3888 | 13
33: COc1ccc(OC)c(C2C(C#N)=C(N)N(N(C)C)C3=C2C(=O)CCC3)c1 (stereo not given)
  4 | 13 | 1 | 1.5 | -20 | 3329 | 6
34: CC(=O)Oc1cc2oc(=O)cc(C)c2cc1OC(C)=O
  -2 | -2 | 8 | 0.5 | -11 | 12438 | -5
35: Cc1cc(C)cc(OCC(=O)ON=C(N)c2ccccn2)c1
  . | 0 | 14 | -3.5 | . | . | -9
36: CCN(CC)S(=O)(=O)c1ccc2c(c1)nc(CCC(=O)O)n2CC
  0 | 4 | 0 | 1.4 | -16 | 4757 | 1
37: Cc1ccc(C)c(NC(=O)c2cc(-c3cccnc3)nc3ccccc23)c1
  -5 | 15 | 6 | -0.4 | -21 | 4187 | 8
38: Cc1ccc(CNC(=O)C(=O)NCC2OCCCN2S(=O)(=O)c2cccs2)cc1 (stereo not given)
  -15 | 7 | -3 | 1.7 | -9 | 6072 | 7
39: CC(C)(C)c1cc(C(=O)NN=Cc2ccccn2)n[nH]1
  . | 12 | 2 | 5.8 | . | . | 5
40: CC(=O)c1ccc(S(=O)(=O)NC2CC2)cc1
  -8 | 6 | 8 | 3.4 | -10 | 3609 | 7
41: Cc1ccc(CN2CCSc3ccc(C(=O)NCc4ccccn4)cc32)cc1
  -6 | 5 | -6 | -5.4 | -30 | 2285 | -7
42: C[C@]12CCC(=O)C=C1CC[C@@H]1[C@@H]2CC[C@@]2(C)[C@H]1CC[C@@]21CCC(=O)O1
  -12 | 7 | 7 | 4.6 | 4 | 4574 | 3
43: CN1CCN(c2ccc(NC(=O)C(C)(C)C)cc2)CC1
  3 | . | . | 1.2 | -4 | 4159 | 6
44: COc1ccc(OC(=O)c2cccc(S(=O)(=O)N3CC(C)OC(C)C3)c2)cc1 (stereo not given)
  . | -5 | 1 | -4.7 | -21 | 3955 | -19
45: O=C(COc1ccccc1Cl)NNC(=O)c1ccc2nc[nH]c2c1
  13 | . | . | . | -16 | 6754 | .

Among those listed so far, these contain a Cl atom:
The line under a structure holds: BJeLR viability | Mtb hypoxia inh | Mtb hypoxia inh growth | RN4220 kill | PrP 5UTR inh | Bead autofluor | Sa ugtP lethal
13: CCn1c(O)c(C=Nc2cc(Cl)ccc2Cl)c(=O)n(CC)c1=O
  -2 | 3 | -2 | -3.6 | -14 | 2354 | -10
14: Cc1cc(Cl)ccc1OCC(=O)NCC(=O)N/N=C/c1ccco1
  -2 | . | . | . | -16 | 2193 | .
28: O=C1CC(NCc2ccncc2)C(=O)N1c1ccc(Cl)cc1 (stereo not given)
  -7 | -4 | 4 | -4.2 | -37 | 6246 | -6
31: COc1ccc(C(=O)O/N=C(\N)Cc2ccc(Cl)c(Cl)c2)cc1OC
  18 | 12 | 4 | 5.0 | -14 | 2513 | -3
45: O=C(COc1ccccc1Cl)NNC(=O)c1ccc2nc[nH]c2c1
  13 | . | . | . | -16 | 6754 | .

(more compounds)
The line under a structure holds: BJeLR viability | Mtb hypoxia inh | Mtb hypoxia inh growth | RN4220 kill | PrP 5UTR inh | Bead autofluor | Sa ugtP lethal
46: CC(=O)Nc1nnc(-c2ccccn2)o1
  -4 | 1 | -2 | -1.0 | -21 | 2227 | 3
47: Cn1c(Cn2nnc3ccccc32)nnc1SCC(=O)NCc1ccc2c(c1)OCO2
  14 | 10 | -2 | 3.9 | -9 | 8480 | 4
48: CCOCCCNC(=O)C1CC(=O)N(C2CCCC2)C1 (stereo not given)
  0 | 2 | 5 | 1.6 | -13 | 11339 | 3
49: CC(C)C[C@@H](COc1ccccc1)N1CCN(CC(C)C)CCC1=O
  -3 | . | . | . | -15 | 3460 | .
50: CCOC(=O)CSc1nnc2n(Cc3ccccc3)c(=O)c3c4c(sc3n12)CCC4
  . | . | . | -5.1 | -5 | 3483 | -11
51: Cn1cnnc1SCC(=O)N(Cc1ccc2c(c1)OCO2)C1(C(=O)NC2CCCCC2)CCCC1
  -17 | 2 | 0 | 8.9 | -10 | 22413* | 15
52: c1cncc(-c2noc(-c3ccc4ccccc4c3)n2)c1
  1 | -2 | 7 | -0.6 | -53 | 3153 | -12
53: O=[N+]([O-])c1cc(/C=N/O)ccc1Sc1ccccc1
  -3 | . | . | . | -13 | 3287 | .
54: CCN(CC)S(=O)(=O)c1ccc(N2CCOCC2)c(NC(=O)c2cc(C)cc(C)c2)c1
  1 | -12 | -17 | 0.9 | -15 | 2096 | 1
55: CS(=O)(=O)c1ccccc1C(=O)NCCC(c1ccccc1)c1ccccc1
  3 | 12 | 3 | -3.6 | -69 | 4314 | 6
56: O=S(=O)(Nc1ccc(Cc2ccncc2)cc1)N1CCCC1
  2 | 11 | 6 | 3.2 | -58 | 7517 | 4
57: COc1ccc(CCNC(=O)c2c(C)nn(CC(C)C)c2Cl)cc1
  -13 | 6 | 6 | 1.3 | -6 | . | 8
58: CC1(C)CC(=O)C(=C2SCCCS2)C(=O)C1
  5 | 14 | 5 | 1.5 | -14 | 10384 | 6
59: COC(=O)C1CC(=O)N(CCc2c[nH]c3ccccc23)C1 (stereo not given)
  -8 | 2 | 9 | 4.8 | -6 | 3619 | 1
60: COc1ccc(NC(=O)N(C)CC2Oc3ccc(NS(=O)(=O)c4ccc(F)cc4)cc3C(=O)N(C(C)CO)CC2C)cc1 (stereo not given)
  . | -1 | 2 | -1.8 | . | . | -3
61: COc1cc(/C=N/NC(=O)c2cccnc2)ccc1OCC(=O)Nc1c(C)cc(C)cc1C
  -3 | . | . | . | -17 | 2571 | .
62: CCCNC(=O)C(NS(=O)(=O)c1ccc2c(c1)c(=O)n(C)c(=O)n2C)c1ccccc1 (stereo not given)
  -3 | -2 | 10 | 5.7 | -70 | 4432 | -4
63: Cc1ccc(S(=O)(=O)N2CCOCC2)cc1NC(=O)COc1cccc(-n2cnnn2)c1
  . | -7 | 1 | -3.1 | -1 | ? | -6
64: CCCN1C(=S)c2ccccc2C1c1ccccc1 (stereo not given)
  6 | 18 | 5 | 6.8 | -46 | 4009 | 7
65: COc1ccc(C2CC=C(C(=O)O)C(c3cccc(Cl)c3)N2S(=O)(=O)c2ccccc2C)cc1 (stereo not given)
  . | 7 | 4 | 18 | . | . | -2
66: CC(C)C(NS(=O)(=O)c1cccs1)C(=O)NCCCN1CCCCCC1 (stereo not given)
  6 | 11 | -6 | 2.3 | 16 | 4216 | 4

The order is random. About 3.9% of those tested had a hit in this group.
